# PV pol inh – poliovirus RdRp elongation inhibitors, primary screen, biochemical, fluorescence polarization, total intensity; AID 588519, 2011; Genome polyprotein (Poliovirus type 1 (strain Mahoney)), P03300; poliovirus polymerase elongation; hits give low values; hit rate 0.66% among 150,000; % elongation, % (compound at 16.7 µg/mL); in the data active = % elongation below about 90%; also: some results filed as inactive read as strong as hits
# Target sequence (P03300 1749-2209 limits assumed): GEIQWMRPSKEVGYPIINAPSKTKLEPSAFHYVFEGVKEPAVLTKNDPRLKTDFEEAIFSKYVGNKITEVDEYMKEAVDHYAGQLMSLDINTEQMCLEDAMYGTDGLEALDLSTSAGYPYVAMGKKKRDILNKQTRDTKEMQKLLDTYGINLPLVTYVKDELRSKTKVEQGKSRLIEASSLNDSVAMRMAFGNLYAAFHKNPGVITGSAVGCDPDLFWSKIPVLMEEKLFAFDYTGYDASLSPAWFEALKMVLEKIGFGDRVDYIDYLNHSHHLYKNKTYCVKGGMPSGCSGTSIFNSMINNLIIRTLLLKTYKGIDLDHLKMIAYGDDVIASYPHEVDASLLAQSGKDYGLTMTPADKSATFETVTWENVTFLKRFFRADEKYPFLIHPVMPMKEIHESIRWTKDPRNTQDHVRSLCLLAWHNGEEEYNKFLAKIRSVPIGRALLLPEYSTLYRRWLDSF
# PV pol inh intensity – recorded beside PV pol inh, whose call it bears; % elongation; measured here: total intensity read-out; formula for this scale not given here;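 total fluorescence in place of polarization; lower means less elongation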
# * marks the source's active call; other numbers are inactive results.
# Values in the order: PV pol inh, PV pol inh intensity
- O=C(Cn1cccc1C(=O)c1ccccc1)NCc1ccccc1Cl
→ 108, 111
- Cc1ccc(Nc2ccc3cc(S(=O)(=O)N4CCC(C)CC4)ccc3n2)c(Cl)c1
→ 102, 110
- COc1ccc(C(=O)NCC(c2cccnc2)N2CCN(c3ccc(F)cc3)CC2)cc1 (stereo not given)
→ 109, 105
- Cc1cccc(C(=O)NCC(=O)OCc2cc(=O)n3nc(C4CCCCC4)sc3n2)c1
→ 105, 114
- CCC(=O)N1c2nc(-c3ccco3)nn2C2(CCCCC2)[C@@H]2CCCC[C@@H]21
→ 110, 96
- O=C(Nc1cccc(O)c1)c1cc(-c2ccccc2F)no1
→ 108, 107
- COc1ccc(F)cc1S(=O)(=O)NCCc1sc2nc(-c3ccc(F)cc3)nn2c1C
→ 107, 108
- COc1cc2ccccc2cc1C(=O)Nc1ccc2oc(-c3cccc(C)c3)nc2c1
→ 103, 103
- CCOC(=O)c1c(S(=O)(=O)N2CCC(C(=O)NCc3ccc(F)cc3)CC2)c(C)n(C)c1C
→ 112, 112
- O=C(Nc1cc(C(F)(F)F)ccc1Cl)c1cc(-c2cccs2)nc2ccccc12
→ 105, 112
- COc1ccc(-c2[nH]nc3nc(-c4cc(Br)ccc4OC)cc(C(=O)O)c23)cc1
→ 106, 107
- CCN(CC)C(=O)Cn1c(=O)cc(C)c2c(C)nn(-c3cccc(Cl)c3C)c21
→ 102, 103
- CC(C)(C)c1ccc(C(=O)N2CCC(c3noc(-c4ccc(S(=O)(=O)N5CCCC5)cc4)n3)CC2)cc1
→ 108, 112
- COC(=O)C1CCN(C(c2ccccc2)c2sc3nc(-c4ccco4)nn3c2O)CC1 (stereo not given)
→ 105, 108
- COc1ccc(N(CC(=O)Nc2cccc(Cl)c2C)S(=O)(=O)c2c(C)nn(C)c2C)cc1
→ 109, 106
- CCOc1ccc(N(CC)S(=O)(=O)N2CCCC(C(=O)Nc3cc(Cl)ccc3C)C2)cc1 (stereo not given)
→ 104, 109
- COc1ccccc1CNc1ccc(-c2nc(-c3ccncc3)no2)cc1[N+](=O)[O-]
→ 106, 107
- Cc1ccnc(NS(=O)(=O)c2ccc(NC(=O)C(C)(C)Oc3ccc(Cl)cc3)cc2)n1
→ 106, 108
- COc1ccc(-c2cc(C(=O)Nc3c(C(=O)c4ccc(Cl)cc4)oc4ccccc34)no2)cc1
→ 107, 110
- CC(CCc1ccccc1)NC(=O)CSc1n[nH]c(-c2ccccc2)n1 (stereo not given)
→ 113, 113
- Cc1ccc(NC(=O)c2c(C)oc3ccc(O)c(CN4CCCCC4)c23)cc1
→ 108, 112
- COc1cc2c(-c3ccccc3Cl)nc3c(c(C)nn3-c3ccccc3)c2cc1OC
→ 108, 113
- COc1ccc(Cl)cc1NC(=O)CSc1nc(=O)[nH]c2c1CCC2
→ 102, 100
- CC(=O)c1ccccc1NS(=O)(=O)c1cc2c(cc1C)NC(=O)CO2
→ 110, 116
- CN(C)c1ccc(C(CNC(=O)c2ccccc2F)N2CCc3ccccc32)cc1 (stereo not given)
→ 110, 115
- CCS(=O)(=O)N1CCc2cc(C(=O)N3CCN(c4cccc(C(F)(F)F)c4)CC3)ccc21
→ 115, 115
- COc1cccc(C(=O)N2CCC(C(=O)Nc3cccc(Cl)c3)CC2)c1
→ 110, 113
- CCOC(=O)c1cccc(NC(=O)Cn2nc3c(cc2=O)CCCC3)c1
→ 102, 112
- CCOC(=O)c1c(-c2ccccc2)csc1NC(=O)c1nc(S(=O)(=O)CC)ncc1Cl
→ 122, 112
- Cc1ccc(OCC(=O)Nc2ccc3nc(SCC(=O)N4CCCC4)sc3c2)cc1
→ 110, 116

# For convenience, 2 of the compounds above.
# Values in the order: PV pol inh, PV pol inh intensity
- CCOC(=O)c1c(-c2ccccc2)csc1NC(=O)c1nc(S(=O)(=O)CC)ncc1Cl
→ 122, 112
- Cc1ccc(OCC(=O)Nc2ccc3nc(SCC(=O)N4CCCC4)sc3c2)cc1
→ 110, 116

# (more compounds)
# Values in the order: PV pol inh, PV pol inh intensity
- COc1cccc(N2CCN(C(=O)c3ccc(CS(=O)c4cccc(Cl)c4)o3)CC2)c1 (stereo not given)
→ 112, 110
- CCc1ccc(-n2nc(C)c3c2NC(=O)CSC3c2ccc(C(=O)OC)cc2)cc1 (stereo not given)
→ 111, 115
- COc1ccc2[nH]c3c(c2c1)CCN(C(=O)CCC1CCCC1)C3c1ccc(F)cc1 (stereo not given)
→ 105, 109
- CCN1CCc2nc3sc(C(=O)Nc4cccc(Cl)c4C)c(N)c3cc2C1
→ 108, 111
- CCc1ccccc1NC(=O)CSc1ncc2c(n1)-c1cc(Cl)ccc1N(Cc1ccccc1)S2(=O)=O
→ 108, 113
- Cc1ccccc1NC(=O)c1cc2sccc2n1Cc1ccc(F)cc1
→ 105, 106
- COc1ccccc1N1CCN(C(=O)Cc2c(C(=O)O)c(C)cn2C)CC1
→ 106, 111
- CC(C)CS(=O)(=O)c1oc(-c2ccc(F)cc2)nc1S(=O)(=O)c1ccccc1
→ 108, 109
- COC(=O)c1ccc(NC(=O)c2cc3cc4ccc(OC)c(Cl)c4nc3s2)cc1
→ 105, 113
- CCOc1ccc(OCC)c(NS(=O)(=O)c2cc(-c3cc(C)no3)ccc2C)c1
→ 108, 106
- COc1cccc(-c2ccnc3[nH]n(-c4ccccc4)c(=O)c23)c1
→ 106, 108
- COc1ccc(CNC(=O)Cn2c(=O)n3nc(-c4ccc(OC)cc4)nc3c3ccccc32)cc1
→ 110, 112
- Cc1cccc(C(=O)Nc2c(-c3ccccc3)nc3cc(C)ccn23)c1
→ 104, 103
- Cc1ccc(C)c(CN2CCC(CNC(=O)C(CC(C)C)N3Cc4ccccc4C3=O)CC2)c1 (stereo not given)
→ 123, 125
- CCOC(=O)CC(NC(=O)c1cc2cc(OC)ccc2oc1=O)c1ccc(OC)cc1 (stereo not given)
→ 100, 102

# Shown with each value named: entries from further up
COc1ccccc1N1CCN(C(=O)Cc2c(C(=O)O)c(C)cn2C)CC1
  PV pol inh: 106 | PV pol inh intensity: 111
CC(C)CS(=O)(=O)c1oc(-c2ccc(F)cc2)nc1S(=O)(=O)c1ccccc1
  PV pol inh: 108 | PV pol inh intensity: 109
COC(=O)c1ccc(NC(=O)c2cc3cc4ccc(OC)c(Cl)c4nc3s2)cc1
  PV pol inh: 105 | PV pol inh intensity: 113

# (list continues)
Structure,PV pol inh,PV pol inh intensity
CCOC(=O)c1scc(-c2ccccc2)c1S(=O)(=O)Nc1ccccc1F,104,100
COC(=O)c1ccc(Cn2c(SCc3cccc(C)c3)nc3ccncc32)cc1,113,107
COc1ccc(C2=C(C(C)=O)Sc3nnc(-c4ccc(Cl)cc4)n3N2C(C)=O)cc1OC,102,106
CCN(c1ccccc1)c1nnc(NC(=O)Nc2ccccc2F)s1,102,100
O=c1c2cccnc2n(Cc2ccc(Cl)cc2)c(=O)n1Cc1ccc(F)cc1,109,110
COC(=O)c1nnn(-c2ccc(Cl)cc2)c1C(=O)OC,115,105
COc1cccc(NC(=O)CSc2nccn2Cc2ccc3c(c2)OCO3)c1,104,108
O=C(NC1CC1)c1ccc(Cn2c(SCc3ccccc3F)nc3cccnc32)cc1,119,117
CCOC(=O)N1CCN(c2ncc3c(n2)CC(c2ccc(Cl)cc2)CC3=O)CC1 (stereo not given),108,111
Cc1c(CCC(=O)N2CCCCC2)c(=O)oc2cc3occ(C(C)(C)C)c3cc12,108,111
COc1ccc(NC(=O)CCc2nc(C3=CCN(Cc4cccc(Cl)c4)CC3)no2)cc1OC,98,105
CCOc1ccc(OCC)c(NC(=O)C2CCCN(S(=O)(=O)c3ccc(C)cc3)C2)c1 (stereo not given),103,106
Cc1ccc(Cn2ccnc2SCC(=O)NCc2ccccc2Cl)cc1,109,111
CN(C(=O)CSc1nnc(-c2ccc([N+](=O)[O-])cc2)o1)c1ccccc1,102,104
Cc1ccc(NS(=O)(=O)c2c(C)nc3sc(C)cn3c2=O)c(C)c1,104,106
CCOC(=O)c1c(C)sc(-c2c(-c3ccc4c(c3)OCCO4)[nH]c3c2c(=O)[nH]c(=O)n3C)c1O,161,177
CC(C)c1ccc(NC(=O)CN2C(=O)COc3ccc(S(=O)(=O)N4CCCCCC4)cc32)cc1,129,119
COc1cc(N2C(=O)CSC23C(=O)N(Cc2ccc(C)cc2)c2ccccc23)cc(OC)c1OC (stereo not given),100,108
CCOc1ccc(CCNC(=O)c2nnc(Cc3cc(OC)c(OC)c(OC)c3)o2)cc1OCC,103,109
COc1ccc(NC(=O)CSc2nc3nc(C)cc(C)n3n2)cc1OC,111,112
Cc1c(Cl)cccc1NC(=O)c1ccc2nc(C(C)C)oc2c1,109,113
COc1ccc(NC(=O)C2CCN(c3nc(-c4ccc(OC)c(OC)c4)no3)CC2)cc1Cl,106,108
Cc1nc(N2CCCC2)c2c(C(=O)N3CCN(c4cc(Cl)ccc4C)CC3)c(C)oc2n1,101,105
CN(C)c1ccc(CNS(=O)(=O)c2ccc(-c3cc(C(F)(F)F)on3)s2)cc1,111,114
O=c1[nH]c2ccc(NCc3ccc(-c4cccc(Cl)c4)o3)cc2[nH]1,103,106
CSC1=NC2(CCN(C(=O)NC3CCCCC3)CC2)N=C1c1ccc(C)cc1,106,109
CCN(Cc1ccccc1)C(=O)c1nn(-c2ccc(OC)cc2)c(=O)c2c1c1ccccc1n2C,104,104
Cc1cc(C)nc(NS(=O)(=O)c2ccc(NC(=O)c3cc(=O)c4ccc(C)c(C)c4o3)cc2)n1,109,106
Cc1oc2ncn(C)c(=O)c2c1C(=O)NCCCN(Cc1ccccc1)C(C)C,113,113
CCCc1ccc(S(=O)(=O)N2CCC(Oc3ccc(-n4cnnn4)cc3)CC2)cc1,99,102
N#CC1=C(N)N(c2cccc(Cl)c2)C2=C(C(=O)CCC2)C1c1cc(CN2CCOCC2)cs1 (stereo not given),105,114
Cc1ccc2c(=O)cc(C(=O)Nc3ccc(S(=O)(=O)Nc4ncccn4)cc3)oc2c1C,105,106
Cc1ccc(CNC(=O)CS(=O)(=O)c2cccc3nsnc23)cc1,104,103
Cc1ccc2c(c1)c1c(c(=O)n(-c3cccc(Cl)c3)c(=O)n1CC(N)=O)n2C,110,112
COc1ccccc1N1CCN(CCCNC(=O)c2nnc(Cc3c(F)cccc3Cl)o2)CC1,108,110
CCOc1ccc(NC(=O)c2cn3c4c(ccc(Cl)c4c2=O)OC(C)C3)cc1 (stereo not given),105,103
CCOc1ccc(S(=O)(=O)N(CC(=O)NCCSc2ccc(C)cc2)c2ccccc2)cc1,106,109
CCC(Sc1nc2nccnc2c(=O)n1Cc1ccc(F)cc1)C(=O)NC1CCCCC1 (stereo not given),111,103
CCCn1c2ccc(F)cc2c2nnc(SCCN3CCCCC3)nc21,103,103
Cc1cccc(NC(=O)CSc2nc(-c3ccco3)cc(C(F)(F)F)n2)c1C,106,112
CC(=O)N1CCCc2cc(S(=O)(=O)N3CCN(c4cccc(C(F)(F)F)c4)CC3)ccc21,115,98
CCOc1ccc(CNC(=O)c2cc3oc4ccccc4c3n2C)cc1,111,106
COCCNC(=O)c1c(NC(=O)c2cc(=O)c3cc(C)cc(C)c3o2)sc2c1CCCC2,110,116
CCCCN(CC)CCNC(=O)c1c(C)oc2ncnc(N3CCOCC3)c12,105,110
CCOc1ccccc1C(=O)Nc1ccc2c(c1)N(C)C(=O)c1ccccc1S2,99,106
COc1cccc(-c2nc(SCC(=O)Nc3ccc4c(c3)OCCO4)c(-c3ccc(C)cc3)[nH]2)c1,111,112
CCOc1ccc(NC(=O)CN2C(C(=O)OC)=C(c3ccccc3)c3cc(Cl)ccc3S2(=O)=O)cc1,106,114
CCOc1ccc(CCNC(=O)c2ccc3c(c2)N(Cc2cccc(Cl)c2)C(=O)c2ccccc2S3(=O)=O)cc1OCC,109,99
Cc1ccccc1C(=O)N1c2ncnn2C2(CCCCC2)[C@@H]2CCCC[C@@H]21,111,114
CCCCC(=O)Nc1nnc(S(=O)(=O)N2CCCCCC2)s1,112,116

# Continued:
Structure,PV pol inh,PV pol inh intensity
CCOc1ccc(Nc2nc(C)c(NC(=O)c3cccc(F)c3)c(Nc3ccc(OCC)cc3)n2)cc1,108,104
Cc1ccc2nc(-c3ccc(C)s3)c(Nc3ccc4c(c3)OCCO4)n2c1,84*,86*
O=C(Nc1ccccc1C(F)(F)F)c1cccn(Cc2ccccc2)c1=O,111,117
O=C(/C=C/c1ccccc1Cl)N1CCC(c2nc3ccccc3o2)CC1,103,107
COc1ccc(OC)c(N(C)S(=O)(=O)c2ccc3c(c2)NC(=O)CC(=O)N3)c1,110,113
Cc1c(NC(=O)c2cc(-c3ccc(Cl)c(Cl)c3)on2)c(=O)n(-c2ccccc2)n1C,105,106
O=C(CCS(=O)(=O)c1ccc(Br)cc1)Nc1ccc(Cl)c(C(F)(F)F)c1,103,97
Cc1cc(C)cc(NC(=O)CSc2nc(=O)n(CCN3CCOCC3)c3c2CCC3)c1,107,110
COc1ccc(N2CCN(C(CNC(=O)c3cccc(OC)c3)c3cccnc3)CC2)cc1 (stereo not given),108,112
CCc1ccc(NC(=O)Cn2c(=O)n(Cc3ccc(C)cc3)c(=O)c3cccnc32)cc1,105,111
CCCCNc1nc2c(-c3cccc(C)c3)nnn2c2ccccc12,107,109
COc1ccc(Cl)cc1NC(=O)CN(c1cc(C)cc(C)c1)S(=O)(=O)c1c(C)n[nH]c1C,107,112
CC(C)(C)OC(=O)N1CCC(c2c(C(=O)N3CCN(c4ncccn4)CC3)cnn2-c2ccccc2)CC1,111,104
Cc1nn(C(C)(C)C)c(OC(=O)c2cccc(F)c2)c1Sc1ccccc1,106,110
COc1ccc(/C=C\c2onc(C)c2S(=O)(=O)N2CCC(C(=O)Nc3cccc(OC)c3)CC2)cc1,106,108
COc1ccc(CNC(=O)CCCn2nc(C)c3c(C)n(-c4ccccc4)nc3c2=O)cc1,109,109

# Grouped by structure, the entries above with a nitro group on carbon
Structure,PV pol inh,PV pol inh intensity
COc1ccccc1CNc1ccc(-c2nc(-c3ccncc3)no2)cc1[N+](=O)[O-],106,107
CN(C(=O)CSc1nnc(-c2ccc([N+](=O)[O-])cc2)o1)c1ccccc1,102,104

# A portion of the library, so the mix of outcomes need not match the whole.
